# B2AR ag: beta2AR agonists driving receptor internalization, primary screen, cell-based, FAP fluorogen, flow cytometry; Am2.2-beta2AR cells; reference of the scale not given here; hit rate 0.43% among 340,000; response, % (concentration not given with the values); AID 504454, 2011;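 active = response above a set limit, near 3 SD of response in nonfluorescent compounds, cut at about 42% in these data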;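 also: stock transfer was 100 nL into about 11 µL; a reference agonist was the positive control; negative values mostly stem from fluorescent compounds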
# Target sequence (P07550 whole entry, looked up): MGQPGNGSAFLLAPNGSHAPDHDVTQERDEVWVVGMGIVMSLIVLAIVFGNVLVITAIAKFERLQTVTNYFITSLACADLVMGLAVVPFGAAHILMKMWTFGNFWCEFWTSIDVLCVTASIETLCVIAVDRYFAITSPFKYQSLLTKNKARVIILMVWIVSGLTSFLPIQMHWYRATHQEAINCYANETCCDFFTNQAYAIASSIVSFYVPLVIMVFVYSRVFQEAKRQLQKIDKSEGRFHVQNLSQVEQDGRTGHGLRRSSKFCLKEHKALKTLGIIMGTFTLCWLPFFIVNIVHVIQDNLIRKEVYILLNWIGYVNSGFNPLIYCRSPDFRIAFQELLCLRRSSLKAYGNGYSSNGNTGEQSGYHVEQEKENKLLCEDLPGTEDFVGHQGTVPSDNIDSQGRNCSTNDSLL
# T cruzi inh: inhibitors of intracellular T. cruzi growth, primary screen, luminescence, NIH3T3 host cells. T. cruzi beta-gal in NIH3T3, 90 h. inhibition, % (concentration not given with the values). hit rate 1.4% among 300,000. AID 1885, 2009;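 active = mean inhibition across valid replicates above about 55%, limit read from the data; inconclusive = mean below that limit but half or more replicates reach it; inactive = mean below it, under half of replicates reach it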;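 also: signal also drops with host cell toxicity which is not excluded here; 0% = plate median of DMSO wells and 100% = zero luminescence signal; higher percent means less beta-gal luminescence so fewer parasites; stock transfer was 50 nL into about 50 µL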
# RanGTP-Imp inh: inhibitors of RanGTP-importin-beta interaction, primary screen, biochemical, FRET, CFP-Ran, YFP-importin-beta, homogeneous | hit rate 1.1% among 300,000 | Ran GTPase (GTP-bound) - importin-beta complex | cell-free CFP-Ran/YFP-importin-beta FRET ratio | inhibition, % (no concentration beside the values);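 active = most replicates above 15%; inconclusive = exactly half above 15%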;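 also: 0% = DMSO wells and 100% = Ran loaded with GDP instead of GTP; wells of about 40 µL received 100 nL stock; the first replicate is given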
# Bfl-1 A1 inh: caspase 3/7 activation in MEF A1-2A-BIM cells, primary screen, A1 inhibitor project, cell-based, luminescence, HTS; hit rate 0.066% among 330,000; caspase activation, % (test concentration not listed); Caspase-Glo 3/7 luminescence, 3 h; percent of clofoctol response, vehicle zero;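 active = over half of replicate activation scores above 10%, or exactly half above 10 with the replicate mean above 10; inconclusive = replicate mean below 10 yet half the replicates above 10; inactive = over half of replicates below 10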;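 also: wells of about 30 µL received 50 nL stock; many hits fall short of the cut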
# Calb FLC: C. albicans growth inhibition with fluconazole, primary screen, CaCi-2 strain, Alamar Blue fluorescence. growth inhibition, % (no concentration beside the values). hit rate 0.57% among 300,000. C. albicans CaCi-2 (fluconazole-resistant clinical isolate) + fluconazole, 48 h;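 active = most replicates above 75%; inconclusive = exactly half above 75%; inactive = most below 75%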;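 also: all wells also contain fluconazole at 8 µg/ml as a sub-toxic cotreatment; 0% = median of DMSO wells and 100% = median of geldanamycin control wells; wells of about 8 µL received 7.5 nL stock; the first replicate is given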
# LANA-H2A inh: blockers of LANA interaction with H2A/H2B – biochemical, FP readout, HTS, primary screen | Protein LANA1 (Human herpesvirus 8 type P (isolate GK18)), Q9QR71 | cell-free LANA-H2A/H2B peptide, fluorescence polarization | inhibition, % (test concentration not listed) | hit rate 0.6% among 320,000 | AID 2629, 2010; in the data active = inhibition mostly above about 10%, no sharp cut-off; inactive = mostly below about 6.7%;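 also: stock transfer was 7.5 nL into about 10 µL; 0% = median of vehicle wells and 100% = median of positive control wells; one replicate is shown; the record names a cut of 25% in any replicate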
# UCH37 DUB inh: inhibitors of human UCH37 deubiquitinase, primary screen, biochemical, Ub-AMC cleavage, fluorescence; AID 588478, 2011; inhibition, % (test concentration not listed); purified proteasome/UCH37; Ubiquitin carboxyl-terminal hydrolase isozyme L5 (Homo sapiens), Q9Y5K5; hit rate 0.33% among 330,000;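 active = mean of two replicates above 20%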;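 also: 0% = compound-free wells with enzyme and 100% = wells lacking proteasome; stock transfer was 100 nL into about 20 µL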
# Target sequence (Q9Y5K5 whole entry, looked up): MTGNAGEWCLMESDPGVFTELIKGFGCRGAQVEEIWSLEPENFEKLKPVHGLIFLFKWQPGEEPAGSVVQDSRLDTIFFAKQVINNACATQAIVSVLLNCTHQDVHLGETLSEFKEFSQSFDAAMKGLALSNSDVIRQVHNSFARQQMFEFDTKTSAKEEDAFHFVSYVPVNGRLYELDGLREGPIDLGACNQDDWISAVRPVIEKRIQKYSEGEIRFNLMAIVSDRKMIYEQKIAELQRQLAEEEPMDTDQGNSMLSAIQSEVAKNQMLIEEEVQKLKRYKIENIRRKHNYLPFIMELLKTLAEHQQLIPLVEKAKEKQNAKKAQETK
#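 Material: Human UCH37 enzyme supplied as purified proteasome complex | Schedule: 30 min preincubation with enzyme, 25 min cleavage at room temperature | Detection: AMC fluorescence 355/460 nm | Measure: % inhibition of Ub-AMC cleavage fluorescence | Controls: Wells without proteasome as full block, compound-free enzyme plus substrate as uninhibited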
# Beta cell apopt: inhibitors of cytokine-induced beta cell apoptosis, primary screen, luminescence; INS-1E cytokine-induced death, ATP luminescence, 48 h; percent of positive-control rescue, neutral wells zero; protection from apoptosis, % (test concentration not listed); hit rate 0.8% among 300,000;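 active = all replicates at 75% or more, or half of them and the mean; inconclusive = half reach 75% but not the mean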;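 also: 0% = cytokine-treated negative control wells and 100% = positive control rescue; higher means more ATP so stronger rescue from cytokine killing; wells of about 40 µL received 100 nL stock; the first replicate is given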
# Starred values were filed as active, the others as inactive; i = inactive; ? = inconclusive; . = no result given.
SMILES,B2AR ag,T cruzi inh,RanGTP-Imp inh,Bfl-1 A1 inh,Calb FLC,LANA-H2A inh,UCH37 DUB inh,Beta cell apopt
Cc1ccc(S(=O)(=O)N2CC(O)CC2C(=O)OCC(=O)Nc2ccc([N+](=O)[O-])cc2C(F)(F)F)cc1C (configuration not stated),-7,.,.,-0.5,.,-1.0,0.6,-4
C=C(C)c1cccc(C(C)(C)NC(=O)N2CCC(C)CC2)c1,3,10,-2.4,1.3,20,3.1,4.9,-9
Cc1cc(C)c(S(=O)(=O)N2CCCC(C(=O)N3CCCC3)C2)c(C)c1 (configuration not stated),-15,17,11,0.0,1,-0.7,-1.6,-2
Cn1c(N)c(C(=O)CCl)c(=O)n(Cc2ccccc2)c1=O,-2,4,4.9,-0.4,5,7.1,4.1,-14
C=C(C)c1nc(N)nc(N)n1,7,-29,?,0.3,26,-3.8,4.6,-23
CCN1CCN(Cc2ccc(NC(=O)c3cc(NC(=O)C(=O)c4c[nH]c5ccccc45)cc(OC)c3)cc2C(F)(F)F)CC1,18,?,-0.9,-0.2,64,3.2,4.3,98*
O=S(=O)(NC(=NC1CCCCC1)c1ccccc1)c1ccccc1,-6,0,2.0,-0.3,-8,2.2,-0.7,-1
Cc1nc(Cl)c2c(n1)NC(=O)CO2,3,-11,-0.8,0.3,-6,4.9,3.1,8
CC(=O)Nc1ccccc1OCc1cnc(Cl)s1,-2,-10,-3.3,0.1,-4,2.2,1.6,-1
CCOc1ccc(C(=O)NC(C)CCc2ccccc2)cc1 (configuration not stated),10,1,-2.1,0.1,-20,9.9,2.8,2
Cc1cc(N)c2cc(NC(=O)/C=C/c3ccccc3Cl)ccc2n1,73*,51,2.8,-0.7,26,1.9,10,109*
CCOC(=O)C1CCCN(C(=O)c2cccc(S(=O)(=O)N3CCCC3)c2)C1 (configuration not stated),-1,.,.,1.6,.,11,2.4,-5
O=C(NCc1cccc(F)c1)c1cccc2c1C(=O)c1ccc(N3CCCC3)cc1S2(=O)=O,-6,.,.,0.5,.,25*,-1.3,4
COc1cccc2cc(C(N)=O)oc12,4,-3,3.2,0.7,13,-0.3,-7.0,-6
COc1ccc(N2CCN(S(=O)(=O)c3cccc(C(F)(F)F)c3)CC2)cc1,7,14,-4.3,.,9,3.9,2.5,0
C=CCNS(=O)(=O)NC(=O)C1=C(N2CCCC2)COC1=O,-3,.,.,0.7,.,1.3,2.5,5
CSCCC(NC(=O)c1ccc(Cl)cc1Cl)C(=O)N1CC(C)OC(C)C1 (configuration not stated),-8,.,.,-0.5,.,.,0.1,-3
CN(Cc1cccc(Cl)c1Cl)C(=O)CCNC(=O)c1ccco1,-7,.,.,-0.2,.,0.8,5.2,-1
Cc1ccc(S(=O)(=O)NCC2CCC(C(=O)NCCCN3CCCC3=O)CC2)cc1 (configuration not stated),-3,7,2.7,1.4,-6,1.1,2.9,-2
CCOc1ccc(C2CC(=O)NC3=C2C(=O)CCC3)cc1Cl (configuration not stated),-2,5,3.3,-0.2,-6,3.9,0.7,-8
COC(=O)c1ccc2c(=O)n(CC3CCCO3)c(SCC(=O)Nc3ccccc3Cl)nc2c1 (configuration not stated),-2,3,0.2,-0.2,23,-0.1,-3.5,-5
CC1CCc2sc(C(=O)NNC(=S)NC3CC3)cc2C1 (configuration not stated),2,-43,4.8,-0.2,-7,3.3,-1.7,-2
COCCNC(=O)C(c1ccccc1F)N(C(=O)C(=O)NC1CCCC1)C1CCCCC1 (configuration not stated),3,-7,-4.3,-1.0,21,-1.1,3.2,-4
COCCCNC(=O)CCCn1c(=O)[nH]c2ccccc2c1=O,-10,-3,0.7,0.4,-5,-3.5,1.1,-3
Cc1ccc(NC(=O)Nc2nc(-c3ccc(C)s3)cs2)cc1,-2,23,1.7,1.0,-11,2.8,2.9,6

# New compounds follow:
SMILES,B2AR ag,T cruzi inh,RanGTP-Imp inh,Bfl-1 A1 inh,Calb FLC,LANA-H2A inh,UCH37 DUB inh,Beta cell apopt
CCOc1ccc(C(=O)CCC(=O)Nc2ncccc2O)cc1,20,-11,-5.0,-0.2,-7,-0.4,-0.6,-2
C[C@H](C(=O)CC(=O)OC(C)(C)C)[C@H](O)c1ccccc1,3,-29,-0.9,0.3,7,2.9,-1.1,-18
O=C(CN1CCN(c2nc(-c3ccccc3)cs2)CC1)NCc1ccc2c(c1)OCO2,2,12,-1.9,0.4,2,2.4,3.0,3
O=C(/C=C/c1ccc([N+](=O)[O-])cc1)N(c1ccccn1)C1CCCCC1,2,22,-0.5,-0.9,1,-1.5,6.8,-7
Cc1cccc(N(CC(=O)NC(C)(C)C)C(=O)CNC(=O)c2cccs2)c1,-6,-3,5.3,-0.5,9,-6.0,5.7,.
COc1cc2c(cc1OC)C(c1ccc(O)cc1)NCC2 (configuration not stated),-1,4,-2.7,?,-28,-0.9,5.5,-2
CCc1ccc(CNCCSc2nnnn2C)cc1,4,29,6.7,0.2,0,-3.6,1.9,.
O=C(NCCc1cccs1)C1CC(c2ccccc2F)=NO1 (configuration not stated),-1,-8,-3.3,-1.8,16,-0.4,-2.9,1
CCOC(=O)c1sc(=S)n(-c2cc(F)ccc2F)c1N,13,.,4.4,0.5,-23,-1.6,5.7,-5
CCc1nonc1NC(=O)c1oc2ccc(Br)cc2c1C,1,-12,-4.6,-0.8,8,-8.0,0.2,-3
O=C(Nc1cccc(C(F)(F)F)c1)c1ccc2nc(-c3ccco3)c(-c3ccco3)nc2c1,16,6,47*,0.6,-11,0.5,-6.3,0
COc1ccc(NC(=O)C2CC(=O)N/C(=N/N=C/c3ccco3)S2)cc1 (configuration not stated),-2,-15,-3.6,0.4,-7,3.6,.,1
COCCNC(=S)N/N=C(\C)c1cc2ccccc2o1,-1,3,5.8,-0.1,1,2.4,.,1
C[C@H](NS(=O)(=O)c1ccccc1)C(=O)OCC(=O)NC(=O)Nc1ccc2c(c1)OCCO2,1,1,4.1,0.3,31,-10,1.8,-7
Cc1cc(C(=O)NCc2ccccc2)c(=O)[nH]c1C,9,-7,?,-0.2,-14,-1.3,-120,-4
CC1CCN(c2c(NCC3CCC(C(=O)N4CCc5ccccc5C4)CC3)c(=O)c2=O)CC1 (configuration not stated),-11,5,1.3,-0.6,-4,6.0,6.6,.
COC(=O)C1=C(C)N(CCC2=CCCCC2)C(=O)C1,-6,-5,-1.6,-0.2,-3,9.3,1.9,-7
O=C(CN1C(=O)NC2(CCCC2)C1=O)Nc1cccc(C(F)(F)F)c1,-7,-1,-2.4,-0.1,2,1.4,1.3,-1
CCOC(=O)c1sc(NC(=O)CSc2nc(C)cc(-c3ccccc3)n2)c(C#N)c1C,-1,-11,0.0,-1.4,8,7.1,0.3,-7
O=C(Cn1c(SCC(=O)NC2CCCC2)nnc1-c1ccncc1)Nc1ccc2c(c1)OCO2,-11,2,7.2,-0.4,.,0.7,1.9,-6
CC(NC(=O)COC(=O)c1ccccc1SCC(=O)N1CCCC1)c1ccccc1 (configuration not stated),-3,-1,-1.0,0.6,-5,-3.1,0.9,-1
CN(CC(=O)Nc1ccccc1Cl)C(=O)c1ccc(-c2cccc(C(F)(F)F)c2)o1,-12,10,2.7,0.6,-10,-3.1,.,-1
CCC(CC)C(=O)NCCc1cc2cc(C)c(C)cc2[nH]c1=O,0,-20,-1.2,0.3,3,0.0,-2.4,.
CCOc1ccc(S(=O)(=O)NCCSCc2ccco2)cc1,11,2,-0.5,-0.8,0,1.1,0.0,-9
CCc1n[nH]c(=S)n1/N=C/c1cc(Br)c(OC)cc1OC,-1,-4,0.5,-0.2,1,-2.0,.,3

# Profiles from above. Order of values: B2AR ag, T cruzi inh, RanGTP-Imp inh, Bfl-1 A1 inh, Calb FLC, LANA-H2A inh, UCH37 DUB inh, Beta cell apopt
# Results for CCc1ccc(CNCCSc2nnnn2C)cc1 : 4, 29, 6.7, 0.2, 0, -3.6, 1.9, .
# Results for C[C@H](C(=O)CC(=O)OC(C)(C)C)[C@H](O)c1ccccc1 : 3, -29, -0.9, 0.3, 7, 2.9, -1.1, -18
# Results for CN(CC(=O)Nc1ccccc1Cl)C(=O)c1ccc(-c2cccc(C(F)(F)F)c2)o1 : -12, 10, 2.7, 0.6, -10, -3.1, ., -1
# Results for CCOC(=O)c1sc(=S)n(-c2cc(F)ccc2F)c1N : 13, ., 4.4, 0.5, -23, -1.6, 5.7, -5
# Results for O=C(Nc1cccc(C(F)(F)F)c1)c1ccc2nc(-c3ccco3)c(-c3ccco3)nc2c1 : 16, 6, 47*, 0.6, -11, 0.5, -6.3, 0

# (list continues)
SMILES,B2AR ag,T cruzi inh,RanGTP-Imp inh,Bfl-1 A1 inh,Calb FLC,LANA-H2A inh,UCH37 DUB inh,Beta cell apopt
COc1cc(OC)cc(-c2nc(=S)n3ccsc3n2)c1,2,8,0.4,0.5,9,-2.8,6.1,4
O=[N+]([O-])c1cc(Cl)ccc1N1CCOCC1,-13,-4,-0.5,0.2,11,-0.9,-0.7,-3
Cc1ccc2oc(=O)c3cc(C(=O)NCCCN4CCc5ccccc5C4)sc3c2c1,-23,11,-1.0,1.2,0,-3.3,-0.2,3
COc1cccc(NC(=O)CCC(=O)Nc2cc(OC)c(NC(=O)c3cccs3)cc2OC)c1,-11,5,-3.1,.,-3,.,0.1,.
O=C(NNC(=S)Nc1ccc(F)cc1)c1cccc([N+](=O)[O-])c1,0,-3,4.7,0.6,-4,1.1,-2.0,.
O=[N+]([O-])c1ccc(-n2ccnc2)cc1,0,-6,0.2,-0.3,-4,5.6,4.0,-5
CCOCCCNC(=O)c1cc(-c2ccc(Br)s2)nc2ccccc12,0,-23,19*,-0.3,.,5.6,-92,1
COc1ccc(OC(C)C(=O)NC2CCCCCC2)cc1 (configuration not stated),0,-7,?,0.3,-10,2.3,3.5,-4
COc1ccc(N2C(=O)C3C(C2=O)C2C=CC3C23CC3)c([N+](=O)[O-])c1 (configuration not stated),-4,-7,-0.6,-0.4,-25,9.1,2.0,-13
S=c1[nH]nc(-c2ccc(Br)cc2)n1-c1ccc(Br)cc1,15,-11,-1.4,0.6,6,-1.8,-0.5,4
CC[C@H](C)C(N)c1cn([C@@H](CC(N)=O)C(=O)N2CCNCC2)nn1 (some centres not stated),-10,.,.,-0.3,.,-1.2,3.1,-1
COc1ccc2c(c1)c(=O)oc1cc(OCC(=O)NCC3CCC(C(=O)O)CC3)ccc12 (configuration not stated),2,-5,-3.8,-0.4,6,-6.1,i,.
O=C(COC(=O)c1ccc(CO)cc1)Nc1ccc(OC(F)F)cc1,7,-14,0.5,-0.3,18,-7.1,0.4,-2
